Screening data from PubChem.
MT1-MMP act inh = blocks activation of human MT1-MMP; GFP/RFP ratio change, % at 20 µM; P50281; 360,000 tested, 0.061% active; AID 651647; HT1080 RFP-PRO-GFP cells, GFP/RFP ratio fluorescence, overnight; percent of plate control window, DMSO zero;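 active = GFP/RFP ratio change of at least 30% with cell ATP level not reduced by more than half and red fluorescence within 50% of control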; also: strong numbers were not always called active
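Assay system: HT1080 cells carrying an RFP-PRO-GFP reporter | Dosing: Single dose of 20 µM compound, 1% DMSO final | Incubation: Cells overnight before dosing, compound overnight, 37 °C, 5% CO2 | Evaluation: GFP/RFP fluorescence ratio | Control set: DMSO and RFP-L50D-GFP cell wells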
CSC inhib = blocks cancer stem cells; cancer stem cell-like cells viability, luminescence; inhibition, % at 7.5 µM; 300,000 tested, 1.1% active;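 active = mean at 75% or more and at least half the replicates too; tested in HMLE shEcad cells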;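 also: 0% = median of negative and 100% = median of positive control wells; the first replicate is given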
eIF4H inh = inhibitors of RNA binding by human eIF4H; Q15056; inhibition, % at 35 µM; eIF4H fluorescence polarization binding assay; 290,000 tested, 0.94% active;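 active = 50% or more with normal probe brightness, or confirmed in later tests; about a fifth of its hits are not listed in these tables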;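 also: calls also rest on retests at 20 µM and on dose response follow-up; 0% = protein and probe with vehicle and 100% = probe without protein; strong numbers were not always called active; many hits fall short of the cut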
UUG fidelity = alters start codon recognition fidelity in yeast; S. cerevisiae UUG-firefly luciferase reporter, luminescence/redox ratio; activity score, % at 18.7 µM; 350,000 tested, 0.13% active;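 active = replicate mean at a twofold rise or more, about +100% in these data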;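 also: firefly luciferase made from a UUG start codon reports start codon fidelity; reporter light over untreated wells divided by growth signal over untreated wells; some hits fall short of that in this replicate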
Env fusion inh = blocks HIV Env-driven cell-cell fusion. HeLa-JRFL Env/CEM21 cell fusion, luciferase. inhibition, % at 12.3 µM. 360,000 tested, 1.1% active. AID 651610;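 active = mean replicate inhibition score of at least 50 and every replicate individually at or above 50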;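 also: 0% = plate neutral controls and 100% = maraviroc near 300 nM; one replicate is shown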
PABP polyA inh = PABP-poly(A) binding inhibition; P11940; PABP-poly(A) RNA binding, fluorescence polarization; inhibition, % at 35 µM; 290,000 tested, 1% active; AID 2014;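 active = 50% or more with normal probe brightness, or confirmed in later tests; about a fifth of its hits are not listed in these tables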;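 also: calls also rest on retests at 20 µM and on dose response follow-up; controls were probe without protein and protein plus probe with vehicle; some compounds called inactive have numbers as strong as hits; many hits fall short of the cut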
Rce1 inhib = blocks yeast Ras-converting enzyme; calls only; 290,000 tested, 0.27% active; yeast membranes, quenched prenylated peptide cleavage fluorescence; AID 2563;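 active = fall in fluorescence gain of 50% or more versus controls, with final raw signal at or below 3038400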;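 also: plate controls were neutral control wells for no effect and wells lacking membranes for full effect; tested at 10 µM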
Target sequence (Q03530 whole entry, looked up): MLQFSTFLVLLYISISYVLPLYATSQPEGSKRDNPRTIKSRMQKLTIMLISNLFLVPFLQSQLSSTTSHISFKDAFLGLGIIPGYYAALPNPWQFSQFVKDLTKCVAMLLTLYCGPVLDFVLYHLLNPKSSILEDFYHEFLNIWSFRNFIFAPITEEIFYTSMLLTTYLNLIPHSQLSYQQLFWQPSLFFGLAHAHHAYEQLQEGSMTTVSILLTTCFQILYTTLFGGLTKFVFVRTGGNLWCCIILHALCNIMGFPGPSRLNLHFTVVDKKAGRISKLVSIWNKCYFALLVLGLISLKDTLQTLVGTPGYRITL
eIF4H inh retest = further read-out of eIF4H inh, marked with its call; inhibition, %; compound at 20 µM; confirmation average;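 mean of two retest wells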
PABP polyA inh retest = recorded beside PABP polyA inh, whose call it bears; inhibition, %; compound at 20 µM; confirmation repeats;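 mean of two retest wells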
MT1-MMP act inh RFP = further read-out of MT1-MMP act inh, marked with its call; RFP signal change, %; measured here: RFP expression control read;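 0 = vehicle wells; hits needed this value within 50% of zero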
Numbers without * were called inactive.

Cc1nc2ccccc2nc1OCC(=O)Nc1ccc(F)cc1 was read as MT1-MMP act inh 0, CSC inhib -9, eIF4H inh 3, Env fusion inh 7, PABP polyA inh -1, Rce1 inhib inactive and MT1-MMP act inh RFP -2.
Screening COc1ccc(NC(=O)Nc2cc3oc4ccccc4c3cc2OC)cc1 returned MT1-MMP act inh 3, CSC inhib 8, eIF4H inh -14, UUG fidelity -4, Env fusion inh -6, PABP polyA inh 6, Rce1 inhib inactive and MT1-MMP act inh RFP 1.
`COC(=O)C1CCN(C(=O)/C=C/c2ccc3c(c2)OCO3)CC1` gave MT1-MMP act inh -1, CSC inhib -2, eIF4H inh -16, UUG fidelity -11, Env fusion inh -54, PABP polyA inh -6, Rce1 inhib inactive and MT1-MMP act inh RFP -1.
For O=C(c1ccc2c(=O)n(Cc3ccccc3)c(=S)[nH]c2c1)N1CCCC1 the results were MT1-MMP act inh 0, CSC inhib -12, eIF4H inh -4, UUG fidelity -7, Env fusion inh 14, PABP polyA inh -2 and MT1-MMP act inh RFP -5.
`Cc1nn(CCO)c(N)c1C1(O)C(=O)Nc2c(Cl)cc(Cl)cc21` (stereo unspecified) gave MT1-MMP act inh -1, CSC inhib 22, eIF4H inh 0, UUG fidelity -26, Env fusion inh -11, PABP polyA inh 11, Rce1 inhib inactive and MT1-MMP act inh RFP 10.
O=C(Oc1ccc2ccc(=O)oc2c1)c1cccs1 was read as MT1-MMP act inh -1, CSC inhib -2, eIF4H inh 11, Env fusion inh 8, PABP polyA inh 1, Rce1 inhib inactive and MT1-MMP act inh RFP -2.
CC(=O)N1CCC2(CC1)C(C#N)=C(N)OC1=C2C(=O)CC(C)(C)C1 was read as MT1-MMP act inh 12, CSC inhib -16, eIF4H inh -6, PABP polyA inh 5, Rce1 inhib inactive and MT1-MMP act inh RFP 8.
For CCOc1ccc(NC(=O)N(c2ccccc2)c2ccccc2)cc1 the results were MT1-MMP act inh 2, CSC inhib -8, eIF4H inh -1, UUG fidelity -18, Env fusion inh -25, PABP polyA inh 7 and MT1-MMP act inh RFP -3.
Cc1ccc2nc(C3CCCCC3)c(Cc3ccccc3C(F)(F)F)n2c1 was read as MT1-MMP act inh -5, UUG fidelity -13, Env fusion inh 14 and MT1-MMP act inh RFP -5.
`O=C(CN1CCN(c2ccccn2)CC1)NC(=O)NC1CCCCC1` gave MT1-MMP act inh 1, CSC inhib -9, eIF4H inh -5, UUG fidelity 2, PABP polyA inh -4, Rce1 inhib inactive and MT1-MMP act inh RFP 1.
Screening COc1ccc(NC(=O)C2CCOC2=O)cc1 (stereo unspecified) returned MT1-MMP act inh -1, CSC inhib 4, Env fusion inh 4, Rce1 inhib inactive and MT1-MMP act inh RFP -2.
`COc1ccc(CC(=O)Nc2ccccc2C(C)=O)cc1S(=O)(=O)N1CCOCC1` gave MT1-MMP act inh 1, CSC inhib 7, Env fusion inh 13, Rce1 inhib inactive and MT1-MMP act inh RFP -4.
`CC(=O)C1=C(C)NC(SCC(=O)c2ccccc2)=C(C#N)C1CC(C)C` (stereo unspecified) gave MT1-MMP act inh -3, eIF4H inh -6, UUG fidelity -1, PABP polyA inh 15, Rce1 inhib inactive and MT1-MMP act inh RFP -2.
For Cc1cccc(C)c1OCC(=O)Nc1ccc(NC(=O)c2ccco2)cc1 the results were MT1-MMP act inh 3, CSC inhib -9, eIF4H inh 0, UUG fidelity -10, Env fusion inh 4, PABP polyA inh 8, Rce1 inhib inactive and MT1-MMP act inh RFP -2.
COc1cccc(CN2CCN(Cc3cc(OC)c(OC)cc3OC)CC2)c1 was read as MT1-MMP act inh 0, CSC inhib 26, eIF4H inh 3, UUG fidelity -5, Env fusion inh -9, PABP polyA inh 13, Rce1 inhib inactive and MT1-MMP act inh RFP 1.

Entries above with sulfur:
For O=C(c1ccc2c(=O)n(Cc3ccccc3)c(=S)[nH]c2c1)N1CCCC1 the results were MT1-MMP act inh 0, CSC inhib -12, eIF4H inh -4, UUG fidelity -7, Env fusion inh 14, PABP polyA inh -2 and MT1-MMP act inh RFP -5.
O=C(Oc1ccc2ccc(=O)oc2c1)c1cccs1 was read as MT1-MMP act inh -1, CSC inhib -2, eIF4H inh 11, Env fusion inh 8, PABP polyA inh 1, Rce1 inhib inactive and MT1-MMP act inh RFP -2.
`COc1ccc(CC(=O)Nc2ccccc2C(C)=O)cc1S(=O)(=O)N1CCOCC1` gave MT1-MMP act inh 1, CSC inhib 7, Env fusion inh 13, Rce1 inhib inactive and MT1-MMP act inh RFP -4.
`CC(=O)C1=C(C)NC(SCC(=O)c2ccccc2)=C(C#N)C1CC(C)C` (stereo unspecified) gave MT1-MMP act inh -3, eIF4H inh -6, UUG fidelity -1, PABP polyA inh 15, Rce1 inhib inactive and MT1-MMP act inh RFP -2.

(next part)
Screening Cc1nc2ccccn2c(=O)c1NC(=O)c1ccc(Br)o1 returned MT1-MMP act inh 1, UUG fidelity -22, Env fusion inh 11 and MT1-MMP act inh RFP 5.
Screening C[C@]12C=CC(=O)C=C1CC[C@@H]1[C@@H]2[C@@H](O)C[C@@]2(C)[C@H]1CC[C@]2(O)C(=O)COC(=O)CCC(=O)O returned MT1-MMP act inh -3, CSC inhib -8, eIF4H inh 2, UUG fidelity -10, Env fusion inh inactive, PABP polyA inh -2, Rce1 inhib inactive and MT1-MMP act inh RFP -1.
Cc1occc1C(=O)/C(C#N)=C/c1ccc(O)c(Br)c1 was read as MT1-MMP act inh -48, CSC inhib 8, eIF4H inh 65, UUG fidelity -20, Env fusion inh 28, PABP polyA inh 36, Rce1 inhib inactive, eIF4H inh retest -11, PABP polyA inh retest 25 and MT1-MMP act inh RFP 5.
O=C(NC1CCCCC1)C1COc2ccccc2O1 (stereo unspecified) was read as MT1-MMP act inh -5, CSC inhib -6, UUG fidelity -11, Env fusion inh -13, Rce1 inhib inactive and MT1-MMP act inh RFP -5.
CCOCC(=O)Nc1cc(C(=O)OC)ccc1C(=O)OC was read as MT1-MMP act inh 1, CSC inhib 7, eIF4H inh 6, UUG fidelity -10, PABP polyA inh 8, Rce1 inhib inactive and MT1-MMP act inh RFP 4.
`O=c1c2ccccc2nc(COc2ccccc2)n1/N=C/c1ccco1` gave MT1-MMP act inh 0, CSC inhib 6, eIF4H inh -3, UUG fidelity -1, PABP polyA inh 34, Rce1 inhib inactive and MT1-MMP act inh RFP 5.
`O=C(O)CCc1nc(-c2cccs2)no1` gave MT1-MMP act inh 0, CSC inhib -7, eIF4H inh -5, UUG fidelity -27, PABP polyA inh -8, Rce1 inhib inactive and MT1-MMP act inh RFP 1.
For O=C(COC(=O)[C@@H]1CC(O)CN1S(=O)(=O)c1ccc([N+](=O)[O-])cc1)NC12CC3CC(CC(C3)C1)C2 (stereo partly specified) the results were MT1-MMP act inh 1, CSC inhib -6, eIF4H inh -6, UUG fidelity -1, Env fusion inh -5, PABP polyA inh -6, Rce1 inhib inactive and MT1-MMP act inh RFP 7.
O=C(O)CN1C2=NCCCN2c2ccccc21 was read as MT1-MMP act inh -4, CSC inhib 1, eIF4H inh -5, Env fusion inh -3, PABP polyA inh 15, Rce1 inhib inactive and MT1-MMP act inh RFP 1.
For O=C(Nc1ccc(F)cc1F)C1CCN(S(=O)(=O)c2cccnc2)CC1 the results were MT1-MMP act inh 3, CSC inhib -22, eIF4H inh -6, UUG fidelity -21, Env fusion inh 1, PABP polyA inh -10, Rce1 inhib inactive and MT1-MMP act inh RFP 1.
For CCOc1ccc(Nc2cc(C)nc3c(C)cccc23)cc1 the results were MT1-MMP act inh -1, CSC inhib 5, eIF4H inh -5, UUG fidelity -5, Env fusion inh 15, PABP polyA inh -13, Rce1 inhib inactive and MT1-MMP act inh RFP 2.
For Cc1cccc2nc(CSc3ncccc3C(=O)O)cn12 the results were MT1-MMP act inh 2, CSC inhib -2, eIF4H inh 1, Env fusion inh -5, PABP polyA inh -9, Rce1 inhib inactive and MT1-MMP act inh RFP 5.
`CC(=O)Nc1c(O)nc(SCC(=O)Nc2sc3c(c2C#N)CCCCCC3)[nH]c1=O` gave MT1-MMP act inh -3, eIF4H inh -6, UUG fidelity 3, PABP polyA inh 7, Rce1 inhib inactive and MT1-MMP act inh RFP 1.
Screening COc1ccc(C(=O)NCC(C)NC(=O)c2ccc(OC)c(OC)c2)cc1OC (stereo unspecified) returned MT1-MMP act inh 0, CSC inhib -26, Env fusion inh 10 and MT1-MMP act inh RFP 3.
`COc1ccc(CCNC(=O)C/C(C)=N/NC(=O)C2CCCCC2)cc1OC` gave MT1-MMP act inh 4, eIF4H inh 1, Env fusion inh -22, PABP polyA inh 5, Rce1 inhib inactive and MT1-MMP act inh RFP 5.
Cc1ccc(S(=O)(=O)N2CCC(C(=O)N3CCC[C@H]3C(=O)NCc3ccccc3)CC2)cc1 was read as MT1-MMP act inh 0, CSC inhib -4, eIF4H inh 2, UUG fidelity 15, Env fusion inh -31, PABP polyA inh -7 and MT1-MMP act inh RFP 3.
`CS(=O)(=O)N(CC(=O)NCCSC1CCCCC1)c1ccc2c(c1)OCO2` gave MT1-MMP act inh 5, CSC inhib 5, eIF4H inh 5, UUG fidelity 6, PABP polyA inh -7, Rce1 inhib inactive and MT1-MMP act inh RFP 2.
O=C(NCN1C(=O)C2C3C=CC(C3)C2C1=O)OC1CCCCC1 (stereo unspecified) was read as MT1-MMP act inh 1, CSC inhib -11, eIF4H inh -4, UUG fidelity -19, PABP polyA inh -8, Rce1 inhib inactive and MT1-MMP act inh RFP 1.
For COc1ccccc1C1CC(=O)Oc2cc(C)cc(C)c21 (stereo unspecified) the results were MT1-MMP act inh 2, UUG fidelity -10, Env fusion inh -9 and MT1-MMP act inh RFP 3.
`O=C(Nc1ccccc1)c1ncoc1-c1ccc(Cl)cc1` gave MT1-MMP act inh 1, CSC inhib -2, eIF4H inh -1, Env fusion inh 2, PABP polyA inh 0, Rce1 inhib inactive and MT1-MMP act inh RFP 0.
Screening O=[N+]([O-])c1cccc2ncccc12 returned MT1-MMP act inh 1, CSC inhib -2, eIF4H inh -3, UUG fidelity -11, Env fusion inh -16, PABP polyA inh -2 and MT1-MMP act inh RFP 6.
Screening O=C(/C=C/c1ccc(F)cc1)N1CCN(Cc2ccccc2)CC1 returned MT1-MMP act inh 5, CSC inhib -11, UUG fidelity -25, Env fusion inh -5, Rce1 inhib inactive and MT1-MMP act inh RFP 4.
For Cc1ccc(S(=O)(=O)NCCCCCC(=O)NCCc2ccccc2)cc1 the results were MT1-MMP act inh 1, CSC inhib 5, eIF4H inh -4, UUG fidelity 9, Env fusion inh 11, PABP polyA inh -8, Rce1 inhib inactive and MT1-MMP act inh RFP 3.
For O=C(CCCc1ccccc1)NCCCc1ccccc1 the results were MT1-MMP act inh 1, CSC inhib -3, eIF4H inh -18, UUG fidelity -11, Env fusion inh -6, PABP polyA inh -9, Rce1 inhib inactive and MT1-MMP act inh RFP 1.
Screening Cc1ccccc1/C(N)=N/OC(=O)c1ccc(F)cc1 returned MT1-MMP act inh -4, CSC inhib -12, eIF4H inh -2, UUG fidelity 1, Env fusion inh -39, PABP polyA inh -12, Rce1 inhib inactive and MT1-MMP act inh RFP 0.
`C/C(=N\NC(=S)NCc1ccccc1)c1ccccc1F` gave MT1-MMP act inh -3, CSC inhib -2, eIF4H inh 11, Env fusion inh 11, PABP polyA inh -3, Rce1 inhib inactive and MT1-MMP act inh RFP -7.
Screening CCC(=O)c1ccc(OCC(=O)Nc2cccc(S(=O)(=O)N(C)c3ccccc3)c2)cc1 returned MT1-MMP act inh 6, CSC inhib 7, UUG fidelity -5, Env fusion inh 7 and MT1-MMP act inh RFP -12.
Screening O=C1c2ccccc2[C@@H]2C[C@@H](O)[C@H](Nc3cccc(Cl)n3)CCN12 returned MT1-MMP act inh 1, UUG fidelity -9, Env fusion inh -10 and MT1-MMP act inh RFP 6.
